RGS12 GoLoco inh: qHTS Assay for Inhibitors of RGS12 GoLoco Motif Activity (Red Fluorophore); Potency, µM (top dose mostly 61.6 µM), inactives show at the top dose activity, negative = inhibition, actives largely listed as inhibitors; 0.44% of 230,000 active; Gai1:RGS12 GoLoco peptide FP, rhodamine, 10 min; AID 880, 2007; active means well fitted inhibition curve with a large enough effect, not every such curve was filed as active; inactive means no such curve, though single readings can be large or run the other way; further: on the % scale 0 is the no-effect control and ±100 the full control effect; nearly all actives have a fitted effect of over 30% in size; many of its hits are not listed in these tables
Target sequence (P63096 whole entry, looked up): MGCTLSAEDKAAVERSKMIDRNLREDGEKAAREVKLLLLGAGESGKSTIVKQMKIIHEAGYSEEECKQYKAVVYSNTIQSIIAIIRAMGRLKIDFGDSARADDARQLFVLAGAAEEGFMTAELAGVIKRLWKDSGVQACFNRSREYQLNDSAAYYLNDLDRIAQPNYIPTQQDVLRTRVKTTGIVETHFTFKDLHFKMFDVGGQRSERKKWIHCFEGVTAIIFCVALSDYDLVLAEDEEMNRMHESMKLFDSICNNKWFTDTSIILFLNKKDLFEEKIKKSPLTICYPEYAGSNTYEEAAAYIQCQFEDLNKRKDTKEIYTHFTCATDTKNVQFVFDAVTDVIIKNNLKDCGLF
GAA inh: qHTS Assay for Inhibitors of Human alpha-Glucosidase as a Potential Chaperone Treatment of Pompe Disease; purified human GAA, 4-MU-alpha-glucoside fluorescence; AID 1466, 2008; Lysosomal alpha-glucosidase (Homo sapiens), P10253; Potency, µM (doses to about 76.9 µM), for the others: at the highest dose activity change, negative = inhibition, hits mostly inhibitors; 0.005% of 200,000 active;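 further: plate controls were uninhibited enzyme wells for no effect and no-enzyme background for full effect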
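Fluorogenic assay: 4 nM human alpha-glucosidase with 400 uM 4-methylumbelliferyl-alpha-D-pyranoside in 50 mM citrate/phosphate, 0.005% Tween-20, pH 5.0, 20 min at room temperature. Compounds tested up to 77 uM; AC50 from Hill fits.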
GAA glycogen: qHTS Assay for Inhibitors and Activators of Human alpha-Glucosidase Cleavage of Glycogen. recombinant GAA, glycogen substrate, Amplex Red glucose oxidase fluorescence. Potency, µM (top dose mostly 76.4 µM), without a hit: top-dose activity change, negative = inhibition, most hits filed as inhibitors. AID 2100, 2009. Lysosomal alpha-glucosidase (Homo sapiens), P10253. 0.38% of 300,000 active;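 further: 0% = full enzyme reaction and -100% = no-enzyme basal signal; the screen sought inhibitors and activators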
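Recombinant enzyme (4 nM final) with compounds titrated up to 77 uM and bovine liver glycogen (30 ug) in citrate pH 5.0, 0.01% Tween-20, 37 C 40 min. Released glucose detected by Amplex Red/glucose oxidase (Ex 573/Em 610); AC50 from Hill fits.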
JMJD2E inh: qHTS Assay for Inhibitors of Human Jumonji Domain Containing 2E (JMJD2E); JMJD2E catalytic domain, FDH-coupled NADH fluorescence (FDH is formaldehyde dehydrogenase); Lysine-specific demethylase 4E (Homo sapiens), B2RXH2; Potency, µM (titrated, usually from 57.1 µM), without a hit: at the highest dose activity change, negative = inhibition, hits mostly inhibitors; AID 2147, 2009; 1.6% of 230,000 active; active means well fitted inhibition curve with a large enough effect, not every such curve was filed as active; inconclusive means small, poorly fitted or top-dose-only effect, or another doubt; inactive means no such curve, though single readings can be large or run the other way;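 further: 0% = wells with enzyme and -100% = buffer wells without enzyme; nearly all actives have a fitted effect of over 50% in size; many of its hits are not listed in these tables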
Target sequence (B2RXH2 1-337 limits assumed): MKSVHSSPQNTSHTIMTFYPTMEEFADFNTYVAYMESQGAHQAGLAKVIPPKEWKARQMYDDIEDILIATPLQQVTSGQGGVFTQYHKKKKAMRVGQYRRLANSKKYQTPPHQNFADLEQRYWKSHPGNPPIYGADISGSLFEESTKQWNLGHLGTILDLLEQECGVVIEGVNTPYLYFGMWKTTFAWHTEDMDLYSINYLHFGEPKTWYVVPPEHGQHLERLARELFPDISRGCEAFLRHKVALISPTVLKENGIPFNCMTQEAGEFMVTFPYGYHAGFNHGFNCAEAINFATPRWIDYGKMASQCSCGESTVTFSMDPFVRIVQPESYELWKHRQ
aGal spleen mod: qHTS Assay for Inhibitors and Activators of Human alpha-Galactosidase From Spleen Homogenate; Alpha-galactosidase A (Homo sapiens), P06280; human spleen homogenate, 4MU-alpha-Gal fluorescence, 40 min; Potency, µM (highest dose often 80 µM), inactives show top-dose activity change, negative = inhibition, actives largely listed as inhibitors; 0.008% of 240,000 active;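 further: 0% = enzyme with vehicle and -100% = no enzyme basal signal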
Target sequence (P06280 32-429 limits assumed): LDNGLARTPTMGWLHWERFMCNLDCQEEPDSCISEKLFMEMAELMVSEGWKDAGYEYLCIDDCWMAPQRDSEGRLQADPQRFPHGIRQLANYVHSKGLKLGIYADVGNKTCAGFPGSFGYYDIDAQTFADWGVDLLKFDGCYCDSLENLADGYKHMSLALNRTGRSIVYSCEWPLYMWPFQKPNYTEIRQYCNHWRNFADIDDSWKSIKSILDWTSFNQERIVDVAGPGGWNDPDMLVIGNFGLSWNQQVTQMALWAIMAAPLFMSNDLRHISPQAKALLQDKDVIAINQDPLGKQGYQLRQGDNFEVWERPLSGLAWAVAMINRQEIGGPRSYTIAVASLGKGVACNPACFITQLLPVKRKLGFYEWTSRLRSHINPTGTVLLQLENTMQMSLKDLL
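Human spleen homogenate (1 ug) as enzyme source, 4-methylumbelliferyl-alpha-D-galactopyranoside 1 mM final, citrate/phosphate pH 5.0 with 0.01% Tween-20. Compounds 40 min at 37C, NaOH/glycine stop; fluorescence Ex 365/Em 440, Hill-fit AC50.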
SMN2 splice up: qHTS Assay for Enhancers of SMN2 Splice Variant Expression; HEK293 SMN2-luciferase splicing reporter, luminescence, 30-36 h; AID 1458, 2008; 2.8% of 210,000 active; Potency, µM (top dose mostly 46.1 µM), without a hit: at the highest dose activity change, positive = activation, usual class: activators; further: % of control where 0% means no effect; nearly all actives have a fitted effect of over 55% in size
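HEK293 cells carry an SMN2 […]–luciferase reporter in which exon 7 inclusion puts luciferase in frame. Cells were plated 10-12 h before compound addition, then incubated 30-36 h at 37C. ONE-Glo luminescence was read; sodium butyrate at 4.5 mM final served as control.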
GAA spleen mod: qHTS Assay for Inhibitors and Activators of Human alpha-Glucosidase From Spleen Homogenate. Lysosomal alpha-glucosidase (Homo sapiens), P10253. AID 2112, 2009. 0.006% of 240,000 active. human spleen homogenate, 4-MU-alpha-glucoside fluorescence. Potency, µM (series often up to 79.9 µM), inactives show top-dose activity change, negative = inhibition, actives largely listed as inhibitors;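 further: 0% = enzyme with vehicle and -100% = no enzyme basal signal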
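Compounds were titrated against alpha-glucosidase in spleen homogenate at pH 5.0, with 1 mM 4-methylumbelliferyl substrate for 40 min at 37 C. Reactions were quenched with pH 10 NaOH/glycine and fluorescence measured.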
Starred values were filed as active, the others as inactive; ? = inconclusive; nt = no result given; [ ] = dose if it differs, or a comment. Unless noted, the call rests on the fitted dose curve; in most records, active means well fitted curve in the direction sought with a large enough effect; inconclusive means small, poorly fitted or top-dose-only effect, or another doubt; inactive means no such curve, though single readings can be large; an effect the other way counts as inactive or inconclusive. Potency means the concentration at half of the fitted maximal effect. These rows are one share of the data; rates above refer to the full screens.

Each structure is followed by: GAA glycogen | aGal spleen mod | SMN2 splice up | GAA spleen mod | GAA inh | JMJD2E inh | RGS12 GoLoco inh
- O=C(Nc1cccc(-c2nc3ncccc3o2)c1)c1sc2ccccc2c1Cl
→ 0% | 6% | -5% | -7% | 0% | 0% | 6%
- Cc1ccccc1NS(=O)(=O)c1ccc(C)c(NS(C)(=O)=O)c1C
→ 10% | 6% | 20% | 5% | -7% | 13% | -7%
- O=C(NCc1ccco1)C1CC(=O)N(c2ccc(F)cc2)C1 (stereo not given)
→ -12% | 6% | 5% | 1% | -2% | 1% | 6%
- CC(=O)c1cc(C#N)c(SCc2ccncc2)nc1C
→ 9% | -7% | nt | -2% | 7% | -1% | nt
- CCN(CC)C(=O)Nc1ccc(Br)cc1
→ 1% | 4% | -15% | 2% | 3% | 10% | 5%
- O=C1C2C3C=CC(C4CC34)C2C(=O)N1/N=C/c1cccs1 (stereo not given)
→ -3% | 9% | -7% | 1% | 1% | -4% | 0%
- CC(=O)c1cccc(NC(=O)CSCc2ccccc2)c1
→ -8% | 4% | 6% | 6% | 5% | -1% | 3%
- CC12CCC(C(=O)Nc3cccnc3)(CC1=O)C2(C)C (stereo not given)
→ 2% | 4% | 23% | 0% | ? | 6% | 4%
- COC(=O)C1C/C(=N\NS(=O)(=O)c2ccc(C)cc2)c2ccsc2C1 (stereo not given)
→ -4% | -1% | 26% | -4% | -1% | 7% | -1%
- Cc1ccn2c(NC(=O)c3ccccc3)c(-c3cccs3)nc2c1
→ -2% | 3% | 0% | -3% | -1% | -1% | 8%
- CN1CCN(c2nc3c(c(=O)[nH]c(=O)n3C)n2CCSc2nc3ccccc3s2)CC1
→ -3% | 1% | 20% | 0% | -6% | 0% | 4%
- CC(=NCCN1CCOCC1)C1=C(O)c2ccccc2C1=O
→ 1% | 8% | -2% | -15% | -9% | 2% | 5%
- COc1ccc(NC(=O)Cn2cc(C#N)c3ccccc32)cc1
→ 2% | -3% | 5% | -3% | 7% | 1% | 6%
- COc1ccc(NS(=O)(=O)c2cc(NC(=O)[C@@H](NC(=O)c3ccccc3)C(C)C)ccc2C)cc1
→ 1% | -3% | 3% | -4% | -6% | 0% | 9%
- COc1cc2c(cc1OC)C(C(=O)Nc1ccccc1N1CCN(C)CC1)C1c3ccccc3CCN1C2=O (stereo not given)
→ 17% | -8% | 7% | -8% | -4% | 1% | -3%
- CCN1C(=O)C(CC(=O)Nc2ccccc2)S/C1=N\c1ccccn1 (stereo not given)
→ 1% | -7% | -9% | nt | 0% | -17% | -1%
- CCOc1ccc(NC(=O)N(CCN2CCOCC2)Cc2ccc3c(c2)CCCN3CC)cc1
→ 8.9µM* | 17% | -10% | -14% | 0% | -4% | 0%
- NS(=O)(=O)c1cc(C(=O)O)c(NCc2ccco2)cc1Cl
→ nt | -7% | 1% | -4% | nt | 0% | 4%
- CC1(C)CO[C@@H](CC(=O)O)CN1
→ nt | 3% | 2% | -9% | nt | nt | 3%
- O=C(CSc1ncccn1)Nn1cnnc1
→ 10% | -1% | -12% | -6% | -7% | 2% | 4%
- CC(=O)c1sc(NC(=O)COc2ccc(Br)cc2)nc1C
→ -5% | 4% | nt | 4% | -11% | -10% | 21%
- CC(=O)Nc1ccc(OCC(O)Cn2ccnc2)cc1 (stereo not given)
→ -8% | 8% | nt | 3% | 8% | -1% | 1%
- N#Cc1nc(Cc2cccc3ccccc23)oc1N1CCN(c2ccccc2)CC1
→ -2% | -4% | -6% | -8% | -1% | 4% | -1%
- Cc1ccc(NS(=O)(=O)c2cc3c4c(cccc4c2)C(=O)NC3=O)cc1
→ -1% | -4% | -20% | 0% | 1% | 12% | -4%
- Cn1cc([N+](=O)[O-])c(C(=O)NNC(=O)c2ccc([N+](=O)[O-])cc2Cl)n1
→ 5% | -3% | 3% | 0% | 0% | -2% | 4%
- CCN1CCc2nc(NC(=O)c3cc(F)c(F)cc3Cl)sc2C1
→ 7% | 7% | 21% | 2% | -1% | -10% | 13%
- CCOc1ccc(S(=O)(=O)N2CCc3cc(OC)c(OC)cc3C2)cc1
→ -1% | -21% | -22% | -11% | -9% | -4% | 6%
- CCOC(=O)N/N=C1/C[C@@H](O)[C@@H](O)[C@@H]2[C@@H]3C(=O)N(CC)C(=O)[C@H]3CC[C@H]12
→ nt | -2%[17.5 µM] | nt | 1%[17.4 µM] | nt | nt | nt
- Cc1cc(=O)oc(C)c1C(=O)n1nc(C)c2c1C[C@@H]1[C@H]2C1(C)C
→ -6% | 2% | nt | 1% | -1% | 4% | nt
- Cn1nc(C(F)(F)F)c(C(=O)Nc2cccc(Cl)c2)c1Cl
→ -1% | -9% | -15% | -12% | -1% | 2% | 5%

Reprinted at random: 4 compounds from above, in no set order.
Each structure is followed by: GAA glycogen | aGal spleen mod | SMN2 splice up | GAA spleen mod | GAA inh | JMJD2E inh | RGS12 GoLoco inh
- O=C(NCc1ccco1)C1CC(=O)N(c2ccc(F)cc2)C1 (stereo not given)
→ -12% | 6% | 5% | 1% | -2% | 1% | 6%
- CN1CCN(c2nc3c(c(=O)[nH]c(=O)n3C)n2CCSc2nc3ccccc3s2)CC1
→ -3% | 1% | 20% | 0% | -6% | 0% | 4%
- CCOc1ccc(NC(=O)N(CCN2CCOCC2)Cc2ccc3c(c2)CCCN3CC)cc1
→ 8.9µM* | 17% | -10% | -14% | 0% | -4% | 0%
- NS(=O)(=O)c1cc(C(=O)O)c(NCc2ccco2)cc1Cl
→ nt | -7% | 1% | -4% | nt | 0% | 4%

(further entries)
Each structure is followed by: GAA glycogen | aGal spleen mod | SMN2 splice up | GAA spleen mod | GAA inh | JMJD2E inh | RGS12 GoLoco inh
- CS(=O)(=O)N1CCCC(C(=O)N2CCN(c3cccc(Cl)c3)CC2)C1 (stereo not given)
→ 27% | 5% | -7% | 7% | 3% | -2% | 8%
- CC1Cc2nc(SCC(=O)Nc3nccs3)n(Cc3ccccc3)c(=O)c2S1 (stereo not given)
→ 3% | -4% | 2% | 1% | -12% | -6% | 5%
- Cc1cc(=O)n2c(C)n[nH]c2n1
→ 5% | 1% | -5% | -11% | -5% | 3% | -1%
- O=C(COC(=O)CN1C(=O)C2CCCCC2C1=O)Nc1cc(S(=O)(=O)N2CCOCC2)ccc1Cl (stereo not given)
→ 2% | 0% | 17% | -5% | 3% | -3% | 5%
- O=C(CNC(=O)c1cccc(F)c1)N/N=C/C=C/c1ccccc1
→ -3% | -6% | -25% | -2% | -1% | -4% | 5%
- O=C(Nc1ccc(Cl)cc1)c1ccc2c(c1)OCO2
→ -5% | -4% | 4.5µM* | 0% | -3% | 10% | 9%
- CC(C)N1CC(C(=O)Nc2ccc(Br)c(Cl)c2)CC1=O (stereo not given)
→ -15% | -11% | 17% | -8% | -5% | 6% | 4%
- O=C(CSc1nnc(-c2ccncc2)n1-c1ccc(Cl)cc1)N1CCOCC1
→ -2% | 0% | 14% | 0% | -5% | -7% | 1%
- CN(C)c1ccc(N2CN=C3SCC(=O)N3C2)cc1
→ -7% | -8% | -12% | -12% | -2% | ? | -1%
- CC1CCN(C(=O)C2CCN(S(=O)(=O)c3cccc4nsnc34)CC2)CC1
→ 0% | 7% | -40%[inhibitor] | 8% | 2% | -6% | 9%
- CS(=O)(=O)N1CCN(C(=O)Cc2cccs2)CC1
→ 2% | -4% | -2% | -3% | 2% | 6% | 1%
- CS(=O)(=O)N1N=C(c2ccccc2)CC1c1cccs1 (stereo not given)
→ 10% | 0% | -3% | -7% | ? | 1% | 9%
- O=C(/C=C/c1ccc(Cl)cc1)N1CCN(c2ncccn2)CC1
→ 6% | 2% | -14% | -4% | ? | 7% | 0%
- COc1ccc(C2C(C(=O)NCc3cccnc3)c3ccccc3C(=O)N2C)cc1OC (stereo not given)
→ 3% | 11% | nt | 3% | 2% | 8% | nt
- Cn1cnnc1SCC(=O)Nc1sccc1C#N
→ -10% | -3% | nt | -2% | 5% | 5% | 7%
- COC(=O)Nc1ccc(S(=O)(=O)Nc2cccc3ccccc23)cc1
→ -3% | -4% | -27% | -2% | 2% | 0% | 7%
- CSc1ccccc1C(=O)NC1CCCC1
→ -4% | 0% | 0% | 3% | ? | 1% | -2%
- N#Cc1c(Cn2cncn2)nc(=O)n(-c2ccc(Cl)cc2)c1N
→ -4% | 9% | 0% | 1% | 9% | 3% | 4%
- CCc1c(C#N)c(SCCC(=O)Nc2cccc(OC)c2)nc2c1C(=O)CC(C)(C)C2
→ -6% | -1% | ? | -6% | -1% | -4% | 0%
- O=C(O)CCn1c(=O)[nH]c(=O)n(CCC(=O)O)c1=O
→ 17% | 0% | 11% | 6% | 6% | -9% | 5%
- COc1ccc(OCc2nc(-c3ccc(F)c(F)c3)cs2)cc1
→ -2% | 7% | nt | 3% | -3% | 9% | 5%
- COc1ccc(N2CCN(C(=O)CSc3nnc(-c4cccnc4)n3-c3ccccc3)CC2)cc1
→ 23% | -1% | -3% | -3% | -10% | -1% | 4%
- CCOc1ccc(N2CCn3c2nc2c3c(=O)n(CCc3ccccc3)c(=O)n2C)cc1
→ 1% | -5% | 14% | -20% | 4% | -2% | 3%
- CC(=O)Nc1ccc(NC(=S)NC(=O)/C=C/c2ccc(Cl)cc2)cc1
→ 1% | -3% | 20% | -13% | 5% | 4% | -1%
- CCCn1c(=O)c2ccccc2n2c(SCCOc3ccc(Cl)cc3)nnc12
→ -5% | -25% | -16% | -8% | -16% | 25% | 2%
- CCCN(CCC)CCCNC(=O)C(NS(=O)(=O)c1ccc2c(c1)CCC(=O)N2)c1ccccc1 (stereo not given)
→ -5% | -9% | 0% | -5% | ? | -1% | 1%
- Cc1cc(NC(=O)CSc2nc3sc(C)c(C)c3c(=O)n2C2CCCC2)no1
→ 9% | 0% | -23% | 1% | -2% | -2% | 15%
- Cc1ccc(/C=C/C(=O)Nc2cccc(S(=O)(=O)N3CCOCC3)c2)o1
→ 2% | 4% | -15% | 1% | -2% | -4% | 48%[activator]
- Cc1cc(C)c2c(=O)[nH]cnc2n1
→ 4% | -1% | -6% | nt | -1% | 3% | 4%
- CC(C)c1nnc(NC(=O)CCC(=O)NC2CCCCC2)s1
→ 7% | -5% | nt | 0% | 2% | -2% | 10%

Source: PubChem (National Center for Advancing Translational Sciences (NCATS))
